Assay outcomes as filed in PubChem.
Arbovirus inh: arbovirus infection inhibition. arbovirus infection cell-based antiviral screen. AID 1251. 200,000 tested, 0.37% active. inhibition, % at 10 µM;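 active = inhibition from about 30%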;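 note: bluetongue infection of BSR cells; cell survival read as ATP light after 72 h; 0% = infected wells without compound and 100% = uninfected wells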
Mtb betalactam: beta-lactam sensitization of Mtb H37Rv; M. tuberculosis H37Rv growth with meropenem, percent inhibition; hits of this screen are not shown here; inhibition, % at 25 µM; 330,000 tested, 0.27% active; AID 434955;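 active = about 74% or more and at least 40 points above the plate without the antibiotic, then above 30% in a dose series; inconclusive = first-round hits that could not be retested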;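 note: growth measured after seven days incubation then overnight dye step; 0% = bacteria only wells and 100% = bacteria with antibiotic; twin plates without the antibiotic show which effects depend on it; some results filed as inactive read as strong as hits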
Mtb growth: M. tuberculosis H37Rv growth inhibitors, H37Rv strain (AID 1626); M. tuberculosis H37Rv growth inhibition; higher % means a stronger effect; 220,000 tested, 0.95% active; inhibition, % at 10 µM; hits with a dose series show IC50 in µM;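 active = confirmed in a dose series; inconclusive = inhibition above 80% but not taken into the dose series; inactive = below 80% or under 30% at every dose of the series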;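 note: bacteria incubated seven days before Alamar blue readout; 0% = bacteria only wells and 100% = bacteria with antibiotic wells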
RecA splice inh: blocks M. tuberculosis RecA intein splicing | AID 2221 | cell-free RecA intein splicing, fluorescence | inhibition, %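 (about 9 µM by stock and volumes)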 | 290,000 tested, 0.75% active; in the data active = inhibition above about 30%; inconclusive = no clear call, values can overlap the other calls;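 note: 0% = vehicle wells and 100% = reference inhibitor control wells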
Target sequence (P9WHJ3 whole entry, looked up, canonical isoform): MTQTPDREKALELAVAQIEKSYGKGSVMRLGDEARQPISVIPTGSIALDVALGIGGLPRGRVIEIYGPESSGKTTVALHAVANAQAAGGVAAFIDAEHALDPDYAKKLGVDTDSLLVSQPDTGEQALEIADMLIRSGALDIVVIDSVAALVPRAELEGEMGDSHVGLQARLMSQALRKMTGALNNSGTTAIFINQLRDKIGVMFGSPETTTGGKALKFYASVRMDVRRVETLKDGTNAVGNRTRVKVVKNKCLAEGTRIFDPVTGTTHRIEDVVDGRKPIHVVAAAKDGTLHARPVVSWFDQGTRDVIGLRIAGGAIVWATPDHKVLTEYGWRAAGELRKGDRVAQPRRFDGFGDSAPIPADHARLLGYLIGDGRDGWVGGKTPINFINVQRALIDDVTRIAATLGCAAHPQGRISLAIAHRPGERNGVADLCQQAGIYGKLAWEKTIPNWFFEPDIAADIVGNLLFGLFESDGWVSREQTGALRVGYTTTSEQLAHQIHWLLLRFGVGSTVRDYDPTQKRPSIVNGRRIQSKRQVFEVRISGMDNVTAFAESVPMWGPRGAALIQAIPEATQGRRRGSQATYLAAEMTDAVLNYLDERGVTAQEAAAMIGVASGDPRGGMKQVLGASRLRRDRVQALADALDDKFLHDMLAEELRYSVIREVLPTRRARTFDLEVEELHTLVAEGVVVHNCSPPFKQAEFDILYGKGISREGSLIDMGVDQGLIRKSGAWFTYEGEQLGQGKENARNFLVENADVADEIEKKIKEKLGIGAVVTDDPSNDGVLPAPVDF
YopH PTP inh: YopH (Yersinia) phosphatase inhibition | fluorescence Ex485/Em525 | 140,000 tested, 0.16% active | inhibition, %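 (about 10 µM by stock and volumes)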;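 active = inhibition of 50% or more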;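 note: controls were vehicle for no effect and minimum signal wells for full effect; inactives centre near -20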
Arbovirus inh repeat: also measured in Arbovirus inh; calls as there; inhibition, %; measured here: 10K subset replicate screen; many hits read low in the repeat;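 first of two repeat runs on a subset; 0% = infected and 100% = uninfected wells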
* = called active by the depositor; ? = inconclusive; nt = not tested or not shown; & = joins results of further samples. These rows are one share of the data, so the mix of outcomes need not match the whole.

SMILES	Arbovirus inh	Mtb betalactam	Mtb growth	RecA splice inh	YopH PTP inh	others
O=C(NC(=S)N1CCN(Cc2ccccc2)CC1)c1cccnc1	2	10	6%	3.2	nt
O=c1[nH]c2ccccc2c(O)c1SCCO	-5	4	-1%	3.8	nt
CCOc1ccc(OCCC(=O)OCC(=O)Nc2ccc(C)c(S(=O)(=O)N3CCCCC3)c2)cc1	nt	-2	nt	4.3	nt
COc1ccc(CCNC(=O)CN(C)S(=O)(=O)c2cccs2)cc1OC	6	-1	-6%	4.7	-26
CCCCN(C(=O)C1CC(=O)N(c2ccc3c(c2)OCCO3)C1)c1c(N)n(CCCC)c(=O)[nH]c1=O (centres undefined)	nt	-8	nt	1.4	nt
Nc1ccc(S(=O)(=O)N2CC3CC(C2)c2cccc(=O)n2C3)cc1 (centres undefined)	10	-1	-4%	-0.7	-40	Arbovirus inh repeat=0
Cc1cc(C(=O)OCC(=O)Nc2cc(S(=O)(=O)N(C)C)ccc2Cl)c2ccccc2n1	2	-6	4%	-0.9	nt
Cc1cnn(Cc2ccccc2)c1N	5	-7	-6%	1.4	-28
Cc1cc(NC(=O)CSc2nnc(Nc3ccccc3C)s2)no1	nt	-6	-2%	0.6	nt
CCCCc1n[nH]c2c1/C(=N/O)CC(c1ccccc1)C2 (centres undefined)	-1	16	-2%	0.9	-21
COc1ccc(C(=O)Nc2cccc3cccnc23)cc1OC	3	73	7%	2.6	-20
Cc1ccc(NC(=O)/C=C/c2cccc([N+](=O)[O-])c2)nc1	-3	8	6%	-5.0	nt
Oc1ccc(/C=N/Nc2cc(N3CCCC3)nc(N3CCCC3)n2)cc1O	-17	-1	4%	-4.1	11
CCCSCCCNC(=O)Cn1cc2c(n1)CCCCC2	1	-5	-14%	2.3	-21	Arbovirus inh repeat=-3
Cc1cccc(NCC(=O)NNC(=S)Nc2ccccc2)c1	-2	-12	-3%	-1.2	nt
COc1nc(NC(C)=O)nc(C)c1Br	1	-1	-2%	-0.2	-24
O=C(ON=C1CCSCC1)c1ccccc1	nt	42	4%	nt	-20
Cc1ccc(-c2cc(=O)c3ccccc3[nH]2)cc1	-12	-9	-1%	-2.6	-1
Cc1nn(C)cc1CNC(=O)c1cnn2c(C(F)F)cc(C3CC3)nc12	6	-5	0%	3.1	-97
CN(C)CCCNc1c2c(nc3ccccc13)CCC2	nt	5	nt	1.3	nt
CC1(C)SC(=S)N(NC(=O)Nc2ccccc2)C1N(O)C(=O)Nc1ccccc1 (centres undefined)	-15	-7	-5%	2.7	0
Cc1onc(-c2ccccc2)c1C(=O)OCC(=O)N1CCN(c2ccccc2)CC1	nt	-2	nt	1.4	nt
O=C1NCC(c2ccccc2)C1C(=O)N/N=C\c1ccc(-c2ccc(Cl)c(Cl)c2)o1 (centres undefined)	-36	99	?	21	-51
O=C(NCCc1ccccc1)/C(=C\c1ccc([N+](=O)[O-])cc1)NC(=O)c1ccccc1	-1	-3	nt	-0.2	-20
NC(=O)c1ccc(NC(=O)c2cnc3ccccc3n2)cc1	nt	-5	-16%	-1.2	nt
Nc1nccc(/C=C/c2ccc(Cl)cc2)n1	nt	5	nt	2.2	nt
COc1ccc(NC(=S)NC(NC(=O)c2cccc(C)c2)C(Cl)(Cl)Cl)c([N+](=O)[O-])c1 (centres undefined)	-15	-5	14%	nt	-13
CC(C)CNC(CC(=O)Nc1cccc([N+](=O)[O-])c1)C(=O)O (centres undefined)	-3	2	5%	3.9	-42
c1ccc(C2OCCN3CCCCC23)cc1 (centres undefined)	-17	-1	1%	nt	-24
Cc1cc(Nc2c(C)n(C)n(-c3ccccc3)c2=O)n2c(nc3cc(F)c(F)cc32)c1C#N	nt	2	-6%	-18	nt
O=C(O[C@@H]1Cc2c(O)cc(O)cc2O[C@@H]1c1cc(O)c(O)c(O)c1)c1cc(O)c(O)c(O)c1	-8	nt	-9%&-4%	4.9	nt
CN(Cc1ccncn1)C(=O)CC1C(=O)NCCN1Cc1cccc(Oc2ccccc2)c1 (centres undefined)	-3	-5	-1%	18	nt
Cn1c(C(=O)NC2CCCCCC2)cc2c(=O)n(C)c3ccccc3c21	-15	-2	7%	1.7	-26	Arbovirus inh repeat=-19
O=C(CCl)Nc1cccn2ncnc12	12	99	16%	3.2	-7
C=CCNC(=O)C1CCN(c2ccc(S(=O)(=O)N3CCOCC3)cc2[N+](=O)[O-])CC1	2	5	-8%	12	nt
COc1cccc(-n2nc(-c3ccnn3-c3ccc(F)cc3)c(=O)n(C)c2=O)c1	-1	30	-9%	3.3	0
CO/N=C(\c1nonc1N)N1CCN(c2ccc(Cl)cc2[N+](=O)[O-])CC1	-4	4	nt	16	-15
CC(C)NC(=O)COc1coc(CN2CCN(c3ccccc3)CC2)cc1=O	nt	1	nt	0.4	nt
COc1ccc(NC(=O)c2ccccc2NC(=O)NC2CCCCC2)cc1	7	-8	2%	-0.2	7
CC(=O)n1cc(C2C(=O)CCCC2=O)c2ccccc21	4	0	-3%	1.8	-17
CC(Oc1ccc(Br)cc1)C(=O)Nc1nnc(C2CC2)s1 (centres undefined)	nt	-8	nt	1.4	nt
Cc1ccc(CNC(=O)CN2CCN(Cc3ccc(Cl)cc3)C2=O)cc1	0	-2	7%	1.6	-14
Cc1ccccc1Cn1nnc(-c2cccc(C(=O)O)c2)n1	6	-8	-12%	0.8	-9
COC(=O)c1ccc(-c2ccc(/C=N/N3C(=O)C4C5C=CC(C6CC56)C4C3=O)o2)cc1 (centres undefined)	2	28	4%	1.3	-12
O=c1c2ccccc2nc2sc3ccccc3n12	-15	-12	1%	2.1	-30
O=C(Nc1c(F)cc(F)cc1Br)c1cccnc1	-4	-12	4%	2.0	-3
C=CCSc1nnc(-c2c[nH]c3ccccc23)n1CC	0	nt	3%	nt	nt
COc1ccc(O)c(-c2[nH]ncc2C(=O)c2ccccc2C)c1	4	-15	3%	-1.4	-19	Arbovirus inh repeat=-1
CC1CCN(S(=O)(=O)c2ccc(C(=O)NC3CCS(=O)(=O)C3)cc2)CC1 (centres undefined)	nt	-5	nt	0.5	nt
O=C1CN=C(c2cc([N+](=O)[O-])ccc2Cl)c2cc([N+](=O)[O-])ccc2N1	nt	5	nt	0.9	nt
O=C1/C(=C/c2ccccc2)NC(=S)N1C(c1ccccc1)c1ccccc1	-19	-12	2%	4.3	-24
C/C(=N\NC(=O)c1ccc2nc[nH]c2c1)c1ccc([N+](=O)[O-])cc1	nt	-8	-3%	0.4	nt
CC(CC(=O)O)CC(=O)Nc1ccc(Br)cc1 (centres undefined)	nt	-1	-10%	1.2	nt
COc1ccc(N2C(C(C)=O)=NN(c3ccccc3)C2c2cccs2)cc1 (centres undefined)	-15	-6	6%	-13	-8
CCc1cc(=O)[nH]c(SCC(=O)NCc2ccc3c(c2)OCO3)n1	nt	-5	nt	0.4	nt
CC(C)=CCN1CCN(CCC2=C(C)CCCC2(C)C)CC1CCO (centres undefined)	20	97	5.9µM*	0.3	nt
C(=C\c1ccc(/C=C/c2ccccc2)nn1)/c1ccccc1	nt	1	3%	-1.2	nt
CCOC(=O)Cc1csc(NC(=O)c2ccc3ccccc3n2)n1	nt	86	nt	-2.4	nt
CC(=O)N(c1ccccc1)C1CC(C)N(C(=O)c2ccccc2)c2ccccc21 (centres undefined)	nt	-1	nt	-4.7	nt
Cc1ccccc1C(=O)/C=C1\NC(=O)CS1	0	4	-1%	nt	-42
The list continues.
SMILES	Arbovirus inh	Mtb betalactam	Mtb growth	RecA splice inh	YopH PTP inh	others
N=c1c(S(=O)(=O)c2ccc(Cl)cc2)cc2c(=O)n3ccccc3nc2n1Cc1ccco1	nt	-3	nt	-235	nt
CC(CN(C)Cc1ccccc1)OC(=O)c1cccs1 (centres undefined)	4	-1	2%	2.5	-33
CC(Oc1ccccc1)C(=O)NNC(=O)c1ccccn1 (centres undefined)	-42	91	15%	7.0	-27
O=C(CNC(=O)c1cccs1)NCC(=O)OCc1c(Cl)cccc1Cl	-4	-3	1%	-0.8	-13
O=C(Nc1ccc2c(c1)OCCO2)N1CCN(Cc2ccccc2)CC1	0	-3	0%	-1.7	nt
Fc1ccc(CSc2ccc(-c3ccc4c(c3)OCO4)nn2)cc1	-40	9	-4%	3.8	-14
CC(=O)NCCCC(=O)NNC1CC(=O)N(c2cccc(Cl)c2)C1=O (centres undefined)	nt	-6	-8%	0.7	nt
CC(CO)(CO)NC(=O)c1ccc(=O)[nH]n1	nt	-6	0%	0.1	nt
CC(C)CC(=O)n1sc(NC(=O)c2ccccc2)nc1=O	19	1	-2%	-0.4	-41
Cc1cnc(CNC(=O)CC2C(=O)NCCN2Cc2cccc(F)c2F)cn1 (centres undefined)	nt	-7	nt	1.2	nt
FC(F)Sc1ccc(-n2cc(-c3ccc(Cl)cc3)[n+]3c2CCC3)cc1	5	1	8%	1.2	-25
N#CCCn1ncc2ccccc21	2	-3	-1%	nt	-22
CC(C)(C)C(=O)Nc1sc2c(c1C#N)CCCCC2	6	-11	10%	-1.1	-20
CC1(C)C(=O)Nc2ccccc2N1C(=O)COc1cccnc1[N+](=O)[O-]	-8	-2	-3%	-1.7	nt
Cc1ccc(C)c(N2CCN(C(=O)CN(C)S(=O)(=O)c3ccc4c(c3)CCC(=O)N4)CC2)c1	-12	0	3%	3.8	-63
Cc1c(C(=O)NC2CC2)oc2ccc(S(=O)(=O)N3CCCCCC3)cc12	-3	2	5%	1.3	nt	Arbovirus inh repeat=4

Among those listed so far, 21 have a halogen.
SMILES	Arbovirus inh	Mtb betalactam	Mtb growth	RecA splice inh	YopH PTP inh	others
Cc1cc(C(=O)OCC(=O)Nc2cc(S(=O)(=O)N(C)C)ccc2Cl)c2ccccc2n1	2	-6	4%	-0.9	nt
COc1nc(NC(C)=O)nc(C)c1Br	1	-1	-2%	-0.2	-24
Cc1nn(C)cc1CNC(=O)c1cnn2c(C(F)F)cc(C3CC3)nc12	6	-5	0%	3.1	-97
O=C1NCC(c2ccccc2)C1C(=O)N/N=C\c1ccc(-c2ccc(Cl)c(Cl)c2)o1 (centres undefined)	-36	99	?	21	-51
Nc1nccc(/C=C/c2ccc(Cl)cc2)n1	nt	5	nt	2.2	nt
COc1ccc(NC(=S)NC(NC(=O)c2cccc(C)c2)C(Cl)(Cl)Cl)c([N+](=O)[O-])c1 (centres undefined)	-15	-5	14%	nt	-13
Cc1cc(Nc2c(C)n(C)n(-c3ccccc3)c2=O)n2c(nc3cc(F)c(F)cc32)c1C#N	nt	2	-6%	-18	nt
O=C(CCl)Nc1cccn2ncnc12	12	99	16%	3.2	-7
COc1cccc(-n2nc(-c3ccnn3-c3ccc(F)cc3)c(=O)n(C)c2=O)c1	-1	30	-9%	3.3	0
CO/N=C(\c1nonc1N)N1CCN(c2ccc(Cl)cc2[N+](=O)[O-])CC1	-4	4	nt	16	-15
CC(Oc1ccc(Br)cc1)C(=O)Nc1nnc(C2CC2)s1 (centres undefined)	nt	-8	nt	1.4	nt
Cc1ccc(CNC(=O)CN2CCN(Cc3ccc(Cl)cc3)C2=O)cc1	0	-2	7%	1.6	-14
O=C(Nc1c(F)cc(F)cc1Br)c1cccnc1	-4	-12	4%	2.0	-3
O=C1CN=C(c2cc([N+](=O)[O-])ccc2Cl)c2cc([N+](=O)[O-])ccc2N1	nt	5	nt	0.9	nt
CC(CC(=O)O)CC(=O)Nc1ccc(Br)cc1 (centres undefined)	nt	-1	-10%	1.2	nt
N=c1c(S(=O)(=O)c2ccc(Cl)cc2)cc2c(=O)n3ccccc3nc2n1Cc1ccco1	nt	-3	nt	-235	nt
O=C(CNC(=O)c1cccs1)NCC(=O)OCc1c(Cl)cccc1Cl	-4	-3	1%	-0.8	-13
Fc1ccc(CSc2ccc(-c3ccc4c(c3)OCO4)nn2)cc1	-40	9	-4%	3.8	-14
CC(=O)NCCCC(=O)NNC1CC(=O)N(c2cccc(Cl)c2)C1=O (centres undefined)	nt	-6	-8%	0.7	nt
Cc1cnc(CNC(=O)CC2C(=O)NCCN2Cc2cccc(F)c2F)cn1 (centres undefined)	nt	-7	nt	1.2	nt
FC(F)Sc1ccc(-n2cc(-c3ccc(Cl)cc3)[n+]3c2CCC3)cc1	5	1	8%	1.2	-25
